Autofluor counter: compound fluorescence in toxin protease inhibitor counterscreen. AID 624483. 360,000 tested, 3.1% active. fluorescence intensity (test concentration not listed). compound autofluorescence counterscreen, microsphere flow cytometry; active compounds read high;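 active = at least 3 SD above the mean of all compounds, about 16000 in these data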;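 note: 100 nL of 1 mM stock went into each well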
Starred values were filed as active, the others as inactive. Only part of the results is shown (hit frequency here may not be typical).

smiles	Autofluor counter
COCCNc1nc(NCc2cccc(OC)c2OC)c2sccc2n1	2915
C[C@@H]1Cc2[nH][nH]c(=O)c2[C@H](c2ccc(Cl)cc2)O1	5531
COc1cc(C(=O)N2CCOC23CCN(Cc2ccccc2)CC3)cc(OC)c1OC	4954
COc1ccc(Cn2cc(CN3CC(N4CCN(C5CCN(C)CC5)CC4)CS3(=O)=O)nn2)cc1 (stereo unspecified)	6014
CCn1c(SCC(=O)Nc2oc(C)c3c(C)n[nH]c(=O)c23)nnc1-c1ccco1	2813
COC(=O)CC1C(=O)NCCN1C(=O)c1oc2c(C)c(C)ccc2c1C (stereo unspecified)	3722
COc1ccccc1Cn1c(C)c(C(=O)NCc2ccc3c(c2)OCCO3)sc1=O	5618
COc1ccc(OC)c(C=Cc2ccc([N+](=O)[O-])cc2)c1	3162
COc1ccccc1C(=O)Nc1nnc([C@H]2C[C@H](O)[C@@H](CO)O2)s1	3406
Cc1ccn(CCC(=O)N2CCCC(N3CCN(c4ccccc4C)CC3)C2)n1 (stereo unspecified)	3842
O=c1c2ccc(F)cc2sn1-c1ccccc1	3586
Nc1ncnc2c1ncn2[C@@H]1O[C@H](C(=O)Nc2ccc(C(=O)N3CCCCC3)cc2)[C@@H](O)[C@H]1O	6171
O=C1COc2ccccc2C(c2nc3ccccc3[nH]2)N1Cc1ccccc1 (stereo unspecified)	6004
C[C@H]1CN(Cc2ccccc2)C(=O)[C@@H]1CC(=O)Nc1ccccc1	3570
Cc1cc(Cl)ccc1-c1nc(NCCN(C)C)nc2ccsc12	2874
S=C(NCCc1ccccc1)N1Cc2ccc(Br)cc2-n2nncc2C1	5035
CC[C@@H]1Cc2[nH][nH]c(=O)c2[C@@H](c2ccc(Cl)cc2)O1	5722
CCc1nc2ccc(C(=O)NCCc3ccccn3)cn2c1N(C)CCC(C)C	2947
COc1cccc(-c2cnc(C(O)c3cc(C)cc(C)c3)[nH]2)c1 (stereo unspecified)	4241
Clc1ccccc1Nc1nc(NCc2cccs2)nc2ccsc12	2968
CN(C)c1ccc(-c2csc(C(C)(O)c3cccc(F)c3)n2)cc1 (stereo unspecified)	2924
CCCCN1CC(N2CCN(C3CCN(C)CC3)CC2)CS1(=O)=O (stereo unspecified)	5303
CC1(C(=O)NNC(=O)c2cccc([N+](=O)[O-])c2)CC1Br (stereo unspecified)	2959
Fc1cccc(-c2cncc(N3CCN(CCN4CCCC4)CC3)n2)c1	4053
O=C(c1cc(Cl)cc(Cl)c1)N1CCC2CC1c1cc(N3CCCCC3)ccc12 (stereo unspecified)	24126*
CC1=C(C(=O)N2CCOCC2)CC(CC(=O)NC(c2ccccc2)c2ccccc2)C(=O)N1CCC1=CCCCC1 (stereo unspecified)	4304
Cc1ccc([C@H]2C[C@@H](n3cc(-c4ccc(F)cc4)nn3)[C@H](O)CN2CC2CCCCC2)cc1	2961
COc1ccccc1-c1noc2c1C(=O)N(Cc1cn(-c3ccccc3)nn1)CC2	5683
COc1ccc(-n2nnnc2C(CCSC)N2CCC(n3c(=O)[nH]c4ccccc43)CC2)cc1 (stereo unspecified)	6271
Cc1[nH]c(=O)[nH]c(=O)c1C=CC(=O)NC(CO)CS(=O)Cc1ccccc1 (stereo unspecified)	2745
CN(C)c1ccc(CC(=O)N2CCCCC2c2cc(C(=O)Nc3cccc(C#N)c3)no2)cc1 (stereo unspecified)	3115
CSCCC(c1nnnn1C(C)(C)C)N1CCN(C/C=C/c2ccccc2)CC1 (stereo unspecified)	5449
COc1ccc(-c2ccc3c(c2)CN(C(=S)NCCc2ccccc2)Cc2cnnn2-3)cc1	6076
COc1ccc(NC(=O)c2sc3nc(N4CCOCC4)c4c(c3c2N)CCCC4)cc1	3409
COc1ccc(-c2nc(NC(=O)c3ccco3)sc2C)cc1	2792
COc1cccc(-c2ccc3c(c2)N(Cc2ccc(F)cc2)C(=O)C(C)S3)c1 (stereo unspecified)	3970
O=C(NCc1cccs1)c1csc([C@@H]2C[C@H](O)[C@@H](CO)O2)n1	3912
CCc1nc2c(OCCc3cccc(OC)c3)cccn2c1N(C=O)Cc1ccc(OC)cc1	3030
COc1ccc(S(=O)(=O)N2CC=C(c3ccccc3)CC2)cc1OC	4257
C[C@H]1CN([C@@H](C)CO)C(=O)CCCn2nncc2CO[C@H]1CN(C)C(=O)Nc1cccc(Oc2ccccn2)c1	3877

Molecules above containing a furan ring, fused or not:
smiles	Autofluor counter
CCn1c(SCC(=O)Nc2oc(C)c3c(C)n[nH]c(=O)c23)nnc1-c1ccco1	2813
COC(=O)CC1C(=O)NCCN1C(=O)c1oc2c(C)c(C)ccc2c1C (stereo unspecified)	3722
COc1ccc(-c2nc(NC(=O)c3ccco3)sc2C)cc1	2792

Other records follow:
smiles	Autofluor counter
CCCCCCN1C[C@H](n2cc(-c3ccc(F)cc3)nn2)[C@@H](O)C[C@@H]1c1ccc(Cl)cc1	2961
CCOC(=O)C1CCC(=O)N1Cc1c[nH]c2ccccc12 (stereo unspecified)	4046
CC(C)C[C@H]1CN(CCCC[C@H]2CNC(=O)C(=O)N2CCc2ccccc2)C(=O)C(=O)N1CCc1ccccc1	5165
C#CCN(C[C@@H]1[C@@H](OC(=O)NCc2ccco2)[C@@H](OC(=O)NCc2ccco2)Cn2c(=O)n(CCCCCC)c(=O)n21)S(=O)(=O)c1ccc(C)cc1	3315
Clc1cccc(Cc2c(-c3cccc(Cl)c3)nc3c4ccccc4ccn23)c1	6940
COC(=O)c1cc(S(=O)(=O)NCC(C)c2ccccc2)c[nH]1 (stereo unspecified)	3722
O=C(Nc1nccs1)c1ccc2sc([C@H]3C[C@H](O)[C@@H](CO)O3)nc2c1	3807
COc1ccc(S(=O)(=O)N2CCCCC2)cc1C(=O)NC1CCS(=O)(=O)C1 (stereo unspecified)	3625
CN(C)Cc1ccccc1-c1cccc2nccn12	2924
c1ccc(COc2cccc(-c3cc4nc(NCc5cccs5)ccn4n3)c2)cc1	3836
OC(c1ccc(F)cc1)c1nc(-c2ccc(Cl)cc2)cs1 (stereo unspecified)	3484
CCCCNC(=O)c1nc(C2CCN(S(=O)(=O)c3ccccc3C(F)(F)F)CC2)oc1-c1ccccc1	5453
CC1(C(=O)Nc2ccc3c(c2)OCO3)CCN1Cc1csc2ccccc12 (stereo unspecified)	3365
CCCCCCC=C1CCC(CN2CCCC2)C1=O (stereo unspecified)	4333
COc1ccccc1C(=O)N1CCCC(C)(C(=O)NS(=O)(=O)C2CC2)C1 (stereo unspecified)	3921
Cc1ccc(F)c(S(=O)(=O)NC(=O)C2(C)CCN2C(=O)COc2ccc(Cl)cc2)c1 (stereo unspecified)	3044
Cc1cccc2nc(-c3ccccc3)c(-c3ccc(CN4CCC(n5c(=O)[nH]c6ccccc65)CC4)cc3)nc12	6350
O=c1[nH]nc(-c2ccc[nH]2)[nH]1	2881
CC(C)(C)NC(=O)C1(C)CCC(=O)N1CCCn1ccnc1 (stereo unspecified)	5297
Cc1ncc(C)c2c([N+](=O)[O-])cccc12	3519
CC(=O)c1cccc(-c2cnc3c(NC=O)cc(-c4ccccc4)cn23)c1	3666
COc1cc(CN2CCC(C(=O)NC(c3ccccc3)c3ccsc3)CC2)cc(OC)c1 (stereo unspecified)	4149
CC(C)(C)OC(=O)N1CCc2onc(-c3ccc(N)cc3)c2C1=O	3799
C=C(C)Cn1c2ccc(NC(=O)NCc3ccc(F)cc3)cc2c(=O)n1C	3835
CC1(C(=O)Nc2ccc3c(c2)OCCO3)CCN1C(=O)C1(c2ccc(Cl)cc2)CC1 (stereo unspecified)	3937
C[C@@H]1CN([C@@H](C)CO)C(=O)CCCn2nncc2CO[C@H]1CN(C)C(=O)OCc1ccccc1	3325
CNC(=O)C1(C)CCN1C(=O)c1ccccc1CCc1ccccc1 (stereo unspecified)	4111
NC1=CC(=O)C(=O)c2cccnc21	3906
COc1ccc(-c2ccccc2)cc1NC(=O)C1(C)CCN1C(=O)C(C)C (stereo unspecified)	3648
c1ccc(-c2csc(Nc3ccc4c(c3)OCO4)n2)cc1	5645
CCCCN1C(=O)C(CC(=O)NCC2CCCCC2)CC(C(=O)N2CCCCCC2)=C1C (stereo unspecified)	5804
OC[C@@H]1CN(Cc2ccccc2)C[C@H](n2cnc3c(Nc4ccccc4)ncnc32)O1	4229
CN(CCc1ccccc1)C(c1ccnc2ccccc12)c1nnnn1-c1ccc2c(c1)OCCO2 (stereo unspecified)	5688
COCCn1c(=S)[nH]c2cc(C(=O)NCc3ccc(F)cc3)ccc2c1=O	3540
Cc1ccc(F)cc1-c1cc2nc(NCCCN(C)C)n(C)c(=O)c2s1	2743
O=C(NC1CCCCC1)C1c2ccccc2OCC(=O)N1Cc1ccccc1 (stereo unspecified)	4856
CC(C)(C)c1ccc(S(=O)(=O)NC(=O)C2(C)CCN2C(=O)C2(c3ccc(Cl)cc3)CC2)cc1 (stereo unspecified)	2890
OC(c1ccccc1)(c1ccccc1)C1CCN(CCCOc2ccccc2)CC1	6641
COc1cccc(-c2cnc3c(NC(C)=O)cc(-c4ccc(C(=O)N5CCOCC5)cc4)cn23)c1	4247
O=C(NCCN1CCC(n2c(=O)[nH]c3ccccc32)CC1)c1cccc(Cl)c1	4474
CCOC(=O)[C@]12Cc3cc(Cl)ccc3[C@H]1N(C)C(=O)c1cc(OC)ccc12	4394
Cc1cc(Cl)ccc1C(O)c1ncc(-c2cccc3ccccc23)[nH]1 (stereo unspecified)	3132
CS(=O)(=O)c1ccc(C2=C(CNC(=O)c3nccs3)[C@H]3CC[C@@H](C2)N3Cc2ccco2)cc1	3346
CCCCNC(=O)c1nc(C2CCN(S(=O)(=O)c3csc(C(=O)O)c3)CC2)oc1-c1ccccc1	5520
CC(O)(c1cccnc1)c1nc(/C=C/c2ccccc2)cs1 (stereo unspecified)	3332
Cc1cccc(COC[C@H](Cc2ccccc2)N2CCN(C(=O)c3cc(Cl)cc(Cl)c3)CCC2=O)c1	4042
CCCc1nc2cc(C)c(Br)c(C)n2c1Cc1ccc(OC)cc1C	4684
Cc1ccc([C@H]2C[C@@H](n3cc(C4CC4)nn3)[C@H](O)CN2CC2CCCCC2)cc1	4077
Cc1cccnc1NS(=O)(=O)c1ccccc1	2904
CN(CCc1ccccc1)C(=O)CC1C(=O)NCCN1Cc1ccccn1 (stereo unspecified)	3874
COc1ccc(CNC(=O)O[C@]23C[C@H]4C(=O)N(c5ccccc5)C(=O)[C@H]4C[C@@]2(O)CN(S(=O)(=O)c2ccc(C)cc2)C3)cc1OC	3852
Cc1ccc([C@H]2C[C@H](n3cc(COC(=O)c4ccccc4)nn3)[C@@H](O)CN2C(=O)c2cccs2)cc1	3887
CN(C(=O)COC(=O)Cc1ccc(Br)cc1)c1c(N)n(Cc2ccccc2)c(=O)[nH]c1=O	2898
Cc1ccccc1-c1nc(S(=O)(=O)c2ccccc2)c(NCCN2CCOCC2)o1	2762
CC(C)(C)S(=O)N1Cc2cc(C(=O)NCc3ccc4c(c3)OCO4)nc(-c3cccc(-c4ccncc4)c3)c2[C@H]1CCO (stereo partly specified)	6191
C[C@@H]1CN([C@H](C)CO)C(=O)c2cc(Br)cnc2O[C@@H]1CN(C)Cc1ccc(-c2ccccc2)cc1	3766
O=C(CCN1C(=O)c2ccccc2C1=O)c1ccccc1	2943
Cc1cc(Br)cn2c(CC(=O)N3CCCCC3)c(-c3ccc(F)cc3)nc12	6718
CN1CCN(c2cc(-c3cccc(C(=O)O)c3)nc3ccnn23)CC1	3755
CSc1ncnc2c1ncn2CCCN[C@H](C)c1cccc2ccccc12	3593

A different layout for part of the listing above.
Cc1ccccc1-c1nc(S(=O)(=O)c2ccccc2)c(NCCN2CCOCC2)o1
- Autofluor counter: 2762

CC(C)(C)S(=O)N1Cc2cc(C(=O)NCc3ccc4c(c3)OCO4)nc(-c3cccc(-c4ccncc4)c3)c2[C@H]1CCO (stereo partly specified)
- Autofluor counter: 6191

C[C@@H]1CN([C@H](C)CO)C(=O)c2cc(Br)cnc2O[C@@H]1CN(C)Cc1ccc(-c2ccccc2)cc1
- Autofluor counter: 3766

O=C(CCN1C(=O)c2ccccc2C1=O)c1ccccc1
- Autofluor counter: 2943

(further entries)
smiles	Autofluor counter
CCCCOCCCNC(=O)C[C@@H]1C[C@@]2(C(=O)OCC)CCC=C2N(Cc2ccc3c(c2)OCO3)C1=O	5715
COc1cc(NS(=O)(=O)c2ccc(-n3cccn3)cc2)cc(OC)c1	4040
COc1ccc(C(=O)CC(C#N)c2ccc3c(c2)OCO3)cc1OC (stereo unspecified)	3958
COc1ccc(-c2cc(CNc3nc(NC(C)C)nc4cc(-c5ccccc5)sc34)on2)cc1	3050
CCOC(=O)c1cc2c(c(-c3cccc(C#Cc4ccc(OC)c(OC)c4)c3)n1)[C@@H](CCO)N(S(=O)C(C)(C)C)C2 (stereo partly specified)	6114
C[C@@H]1CN([C@H](C)CO)C(=O)CCCn2cc(nn2)CO[C@H]1CN(C)C(=O)Nc1ccnc(N2CCOCC2)c1	3488
COc1cc(C(O)c2nc(-c3ccc(F)cc3OC)cs2)ccc1F (stereo unspecified)	3574
